High-throughput results (PubChem BioAssay)
Vaccinia inh = blocks a specific stage of Vaccinia orthopoxvirus infection, primary screen, cell-based, single point. Vaccinia-infected cells, mCherry/Venus stage reporter fluorescence; hits give low values; some inactives read as strong as hits. activity change (mCherry), % (test concentration not listed). 89,000 tested, 0.01% active. AID 1053133, 2014;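 active = mCherry past -33% and 40 or more points under the early reporter, replicates agreeing; inconclusive = past -33% without that gap or agreement; tested in A549 cells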;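 also: scaled between vehicle wells and reference inhibitor wells; 23 nL library stock went into each well; one replicate is shown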
Vaccinia inh Venus = second read-out of Vaccinia inh, no call of its own (marks repeat the call); activity change (Venus), %; measured here: Venus reporter, other viral stage;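 negative = less Venus signal; first of two replicates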
Active calls of the source: *; ? = inconclusive; . = not tested or not shown; & = joins results of further samples. Not all compounds are listed; rates above refer to the full screens.

SMILES	Vaccinia inh	Vaccinia inh Venus
COc1ccc(-c2ccc([C@@H]3[C@@H](CO)N4C(=O)CN(C(=O)c5ccc6c(c5)OCO6)C[C@H]34)cc2)cc1	-8.4	-7.3
COc1ccc(CN(C)C[C@@H]2Oc3ccc(NC(=O)Nc4c(C)noc4C)cc3C(=O)N([C@H](C)CO)C[C@H]2C)cc1	9.9	3.1
COc1ccc(S(=O)(=O)N(C)C[C@@H]2OCCCC[C@@H](C)Oc3ccc(NC(=O)Nc4ccc5c(c4)OCO5)cc3C(=O)N([C@@H](C)CO)C[C@H]2C)cc1	4.4	6.1
CO[C@H]1CC[C@@H]2CCN(C)C(=O)[C@@H](C)[C@H](OC)CN(C)C(=O)c3cccc(C#N)c3OC[C@@H]1O2	17.0	16.6
CC(=O)N1[C@H](C(=O)N(C)C)[C@@H](CO)[C@@H]2Cn3c(ccc(-c4ccccc4F)c3=O)[C@@H]21	10.6	7.1
C[C@H](CO)N1C[C@H](C)[C@H](CN(C)Cc2ccc(Oc3ccccc3)cc2)Oc2ccc(NC(=O)Cc3cn(C)c4ccccc34)cc2C1=O	-19.9	-22.0
COc1ccc2c3c([nH]c2c1)[C@@H](CO)N(C(=O)c1ccc(F)cc1)CC31CN(C(=O)NC(C)C)C1	15.4	12.8
CCCN(C)C[C@H]1OCCCC[C@@H](C)Oc2ccc(NS(=O)(=O)c3cn(C)cn3)cc2C(=O)N([C@H](C)CO)C[C@@H]1C	17.0	15.4
O=C(c1ccncc1)N1CC(=O)N2[C@H](C1)[C@@H](c1ccc(-c3ccccc3)cc1)[C@@H]2CO	-1.5	2.5
Cc1ccc(S(=O)(=O)Nc2ccc3c(c2)C(=O)N([C@H](C)CO)C[C@@H](C)[C@H](CN(C)Cc2ccc4c(c2)OCO4)O3)cc1	-30.8	-21.8
C[C@@H]1CN([C@H](C)CO)C(=O)Cc2cc(NC(=O)NC3CCCCC3)ccc2O[C@H]1CN(C)S(C)(=O)=O	10.7&13.6	12.5&12.1
C[C@@H]1CN([C@@H](C)CO)C(=O)c2cc(C3=CCCCC3)cnc2O[C@H]1CN(C)Cc1ccc(C(=O)O)cc1	15.0	8.9
C[C@H]1CN([C@@H](C)CO)C(=O)c2cc(NC(=O)Cc3ccccc3)ccc2O[C@H]1CN(C)CC1CCCCC1	-8.1	-14.1
O=C(Nc1cccc(Cl)c1)N[C@@H]1CC[C@@H](CCNC(=O)C2CCC2)O[C@H]1CO	-8.8	-2.1
C[C@@H]1CN([C@H](C)CO)C(=O)c2cccc(NC(=O)Nc3cccc4ccccc34)c2O[C@@H]1CN(C)C(=O)Nc1ccc2c(c1)OCO2	0.2	-7.2
C[C@H](CO)N1C[C@H](C)[C@H](CN(C)Cc2ccc(C(F)(F)F)cc2)Oc2c(NC(=O)Nc3ccccc3)cccc2C1=O	-21.3	-9.6
O=C1CC[C@@H]2c3[nH]c4ccc(Br)cc4c3CCN12	-3.3	2.7
CN1C(=O)c2cc(NC(=O)c3cccc(F)c3)ccc2OC[C@H]2O[C@@H](CC(=O)NCC3CCCCC3)CC[C@H]21	?	.
Cc1ccc(S(=O)(=O)Nc2ccc3c(c2)C(=O)N([C@@H](C)CO)C[C@H](C)[C@H](CN(C)S(=O)(=O)c2cccs2)OCCCC[C@@H](C)O3)cc1	10.6	27.4
C[C@@H]1CN([C@H](C)CO)C(=O)Cc2cc(NC(=O)CCCCCC(=O)Nc3ccccc3N)ccc2O[C@@H]1CN(C)C(=O)NC1CCCCC1	4.2	15.5
C[C@@H]1CN([C@H](C)CO)C(=O)c2c(c3ccccc3n2C)-c2ccccc2CO[C@@H]1CN(C)C(=O)c1cc(Cl)cc(Cl)c1	?	.
C[C@H]1CN([C@@H](C)CO)C(=O)Cc2cc(NS(=O)(=O)c3cccs3)ccc2O[C@H]1CN(C)Cc1ccccc1	-9.8	-5.9
O=C(C1CCC1)N1C[C@@H]2[C@H](c3ccccc31)[C@@H](CO)N2S(=O)(=O)c1ccccc1	10.3	6.9
COc1ccc(CN(C)C[C@@H]2Oc3ccc(NC(=O)Nc4ccc(OC)cc4)cc3C(=O)N([C@H](C)CO)C[C@H]2C)cc1	-3.5	2.1
C[C@H]1CN([C@@H](C)CO)C(=O)c2cc(NC(=O)CCC(F)(F)F)ccc2O[C@H]1CN(C)Cc1ccccc1	3.7	7.4
Next entries.
SMILES	Vaccinia inh	Vaccinia inh Venus
Cc1noc(C)c1S(=O)(=O)N(C)C[C@H]1OCCCC[C@H](C)Oc2ccc(N(C)C)cc2C(=O)N([C@H](C)CO)C[C@@H]1C	-11.4	-6.9
OC[C@H]1[C@@H](c2ccc(-c3ccc(F)cc3)cc2)[C@@H]2CN(Cc3cccnc3)CCCCN12	?	.
C[C@H]1CN([C@@H](C)CO)C(=O)Cc2cc(NS(=O)(=O)c3ccccc3)ccc2O[C@H]1CN(C)CC1CC1	29.0	20.5
C[C@H]1CN([C@@H](C)CO)S(=O)(=O)c2ccc(-c3ccccc3)cc2O[C@@H]1CN(C)C(=O)Cc1ccccc1	?	.
Cc1ccc(-c2ccc3c(c2)O[C@H](CN(C)C(=O)Nc2ccc(F)cc2)[C@H](C)CN([C@@H](C)CO)S3(=O)=O)cc1	?	.
C[C@@H]1CCCCO[C@H](CN(C)Cc2ccncc2)[C@@H](C)CN([C@H](C)CO)C(=O)c2cc(NC(=O)Nc3ccc(C(F)(F)F)cc3)ccc2O1	-22.8	-13.1
CO[C@@H]1CN(C)C(=O)c2cc(NS(C)(=O)=O)ccc2OC[C@H](C)N(C(=O)CN(C)C)C[C@@H]1C	-15.9	-27.6
CCCN(C)C[C@@H]1OCCCC[C@@H](C)Oc2ccc(NC(=O)CCC(F)(F)F)cc2C(=O)N([C@@H](C)CO)C[C@@H]1C	-0.4	8.1
CC(C)NC(=O)Nc1ccc2c(c1)CC(=O)N([C@H](C)CO)C[C@H](C)[C@@H](CN(C)Cc1ccc(-c3ccccc3)cc1)O2	?	.
C[C@@H]1CN([C@H](C)CO)C(=O)Cc2cc(NS(=O)(=O)c3cn(C)cn3)ccc2O[C@H]1CN(C)Cc1ccc(Cl)c(Cl)c1	12.8	11.8
C[C@@H]1CN([C@@H](C)CO)C(=O)c2cccc(NC(=O)Nc3ccc(F)cc3)c2O[C@H]1CN(C)Cc1ccc(C(=O)Nc2ccccc2N)cc1	11.2	11.1
C[C@H](CO)N1C[C@H](C)[C@H](CN(C)Cc2ccc(C(=O)O)cc2)Oc2c(NC(=O)C3CC3)cccc2C1=O	8.5	20.2
C[C@@H]1CN([C@H](C)CO)S(=O)(=O)c2ccc(-c3ccccc3)cc2O[C@@H]1CN(C)C	0.4	-0.5
C[C@@H]1CN([C@@H](C)CO)C(=O)c2cc(-c3cccnc3)cnc2O[C@H]1CN(C)C(=O)c1ccccc1F	20.7	18.5
Cc1ccc(S(=O)(=O)N(C)C[C@H]2OCCCC[C@@H](C)Oc3ccc(NC(=O)Cc4ccccc4)cc3C(=O)N([C@@H](C)CO)C[C@H]2C)cc1	-24.0	-24.2
Cc1ccccc1S(=O)(=O)N[C@@H]1CC[C@H](CCn2cc(Cc3ccccc3)nn2)O[C@H]1CO	16.4	12.5
COc1ccc(CN(C)C[C@@H]2Oc3ccc(NC(=O)Nc4cccc5ccccc45)cc3C(=O)N([C@@H](C)CO)C[C@H]2C)cc1	-9.9	-6.7
COC(=O)C[C@@H]1C[C@H]2c3cc(N)ccc3O[C@H]2[C@@H](CO)O1	8.1	9.8
COc1ccc(NC(=O)N(C)C[C@@H]2OCCCC[C@H](C)Oc3ccc(NC(=O)NC4CCCCC4)cc3C(=O)N([C@@H](C)CO)C[C@@H]2C)cc1	-7.8	-8.3
O=C(Nc1ccccc1)N1CC(=O)N2[C@H](CO)[C@@H](c3ccc(C#CC4CCCC4)cc3)[C@H]2C1	?	.
O=S(=O)(c1ccccc1)N1CCCCN2[C@H](C1)[C@H](c1ccc(C#Cc3cccnc3)cc1)[C@@H]2CO	-7.8	-6.8
O=C(c1cccnc1)N1CC[C@@H]2[C@H]1c1cc(-c3ccc(F)cc3)ccc1N[C@@H]2CO	17.9	12.3
CCC(=O)N[C@H]1CC[C@H](CCn2cc(-c3cccc(OC)c3)nn2)O[C@H]1CO	-1.9	-5.7
C[C@H]1CN([C@@H](C)CO)S(=O)(=O)c2ccc(C3=CCCC3)cc2O[C@H]1CN(C)S(=O)(=O)c1ccc(F)cc1	?	.
C[C@@H]1CN([C@H](C)CO)S(=O)(=O)c2ccc(-c3ccccc3)cc2O[C@H]1CN(C)C(=O)Nc1ccccc1F	-19.8	-16.1
Continued.
SMILES	Vaccinia inh	Vaccinia inh Venus
COc1ccc(NC(=O)Nc2ccc3c(c2)CC(=O)N([C@@H](C)CO)C[C@@H](C)[C@@H](CN(C)CC2CC2)O3)cc1	-15.8	-15.7
COCC(=O)N1[C@H](CO)[C@@H](c2ccccc2)[C@@H]1CNC(=O)c1ccccn1	2.3	1.8
CC(C)NC(=O)Nc1ccc2c(c1)CC(=O)N([C@H](C)CO)C[C@@H](C)[C@@H](CN(C)Cc1ccc(C(=O)Nc3ccccc3N)cc1)O2	6.8	-1.5
CCCC(=O)Nc1ccc2c(c1)C(=O)N(C)[C@H]1CC[C@H](CC(=O)Nc3cccc(F)c3)O[C@@H]1CO2	5.7	3.0
CC(C)NC(=O)N[C@@H]1CC[C@@H](CCNS(=O)(=O)c2ccc(Cl)cc2)O[C@H]1CO	7.9	3.7
C[C@H](CO)N1C[C@H](C)[C@@H](CN(C)C(=O)NC2CCCCC2)Oc2ccc(NC(=O)Cc3cn(C)c4ccccc34)cc2C1=O	19.4	18.3
O=C(CC1CC1)N1CC(=O)N2[C@H](CO)[C@H](c3ccc(C#Cc4cccc(F)c4)cc3)[C@@H]2C1	-22.1	-15.0
C[C@H](CO)N1C[C@H](C)[C@H](CN(C)S(=O)(=O)c2ccc(Cl)cc2)OCc2cnnn2CCCC1=O	-1.7	22.6
C[C@@H]1CN([C@H](C)CO)S(=O)(=O)c2ccc(C#CC3CC3)cc2O[C@@H]1CN(C)C(=O)c1ccccc1	-9.5	-11.9
O=C(C[C@@H]1CC[C@H]2[C@@H](COC[C@H](O)CN2Cc2cccc(-c3ccncc3)c2)O1)N1CCN(c2ccccc2)CC1	-26.5	-20.9
CCCc1cn(CC[C@H]2CC[C@H](NC(=O)Cc3cccnc3)[C@@H](CO)O2)nn1	13.0	10.9
CNC(=O)C[C@H]1CC[C@H]2[C@H](COc3ccc(NC(=O)Nc4ccccc4)cc3C(=O)N2C)O1	-1.6	2.2
C[C@H](CO)N1C[C@H](C)[C@@H](CN(C)Cc2ccc3c(c2)OCO3)Oc2ccc(NC(=O)C3CC3)cc2CC1=O	-0.5	-5.3
C[C@@H]1CN([C@H](C)CO)C(=O)CCCn2cc(nn2)CO[C@H]1CN(C)C(=O)c1ccc(N2CCN(C)CC2)cc1	4.2&5.1	4.4&3.7
C[C@H]1CN([C@@H](C)CO)S(=O)(=O)c2ccc(-c3ccc(F)cc3)cc2O[C@H]1CN(C)C	-1.4	-5.3
C[C@H](CO)N1C[C@H](C)[C@@H](CN(C)C(=O)c2cccc(F)c2)Oc2cc(-c3cccnc3)ccc2S1(=O)=O	3.6	5.9
C[C@@H]1CN([C@@H](C)CO)C(=O)c2cccc(NC(=O)c3cnccn3)c2O[C@@H]1CN(C)C(=O)Nc1ccccc1	-5.4	-5.4
C[C@@H]1CN([C@H](C)CO)C(=O)c2cc(C#CC3CCCCC3)cnc2O[C@H]1CN(C)Cc1cncnc1	2.4	0.1
CC(=O)N(C)C[C@@H]1Oc2cc(C#C[C@H](C)O)ccc2S(=O)(=O)N([C@H](C)CO)C[C@@H]1C	1.7	-2.2
C[C@H](CO)N1C[C@H](C)[C@H](CN(C)S(=O)(=O)c2ccccc2)OCCCC[C@H](C)Oc2ccc(NS(=O)(=O)c3ccccc3)cc2C1=O	?	.
O=S(=O)(c1ccccc1F)N1CC[C@@H]2[C@H](CO)Nc3ccc(-c4ccc(F)cc4)cc3[C@@H]21	?	.
COc1ccc(NC(=O)N2CC(=O)N3[C@@H](CO)[C@@H](c4ccc(Br)cc4)[C@@H]3C2)cc1	-6.8	-14.1
CCCC#Cc1ccc2c(c1)O[C@@H](CN(C)C(=O)CC)[C@H](C)CN([C@H](C)CO)S2(=O)=O	14.7	6.6
COc1ccc2c3c([nH]c2c1)[C@H](CO)N(C(=O)C1CCCC1)CC31CN(C)C1	0.3	7.4
COCC#Cc1ccc([C@H]2[C@H](CO)N3C(=O)CN(C(=O)Nc4ccc(F)cc4)C[C@@H]23)cc1	16.0	11.8
Cc1noc(C)c1NC(=O)N(C)C[C@H]1OCCCC[C@@H](C)Oc2ccc(NC(=O)NC(C)C)cc2C(=O)N([C@H](C)CO)C[C@@H]1C	17.4	12.0
CC(C)OC(=O)N(C)C[C@H]1OCc2ccccc2-c2c(n(C)c3ccccc23)C(=O)N([C@@H](C)CO)C[C@@H]1C	-30.3	-37.3
C[C@@H]1CN([C@@H](C)CO)C(=O)Cc2cc(NC(=O)Cn3cnnn3)ccc2O[C@H]1CN(C)C	7.9	11.9
